High-throughput results (PubChem)
KCNQ2 inh: KCNQ2 potassium channel inhibitors, primary screen, cell-based, CHO-K1, FluxOR thallium flux, B-score (AID 2156); O88943; 20 min; active compounds read low; only compounds with negative scores are shown here; some inactives read as strong as hits; B-score at 10 µM; 310,000 compounds, 1.1% hits;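 active = fluorescence ratio B-score at most minus 3 library SDs, with starting brightness B-score within 2 library SDs, cut at about -5.5 in these data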
Target sequence (O88943 whole entry, looked up): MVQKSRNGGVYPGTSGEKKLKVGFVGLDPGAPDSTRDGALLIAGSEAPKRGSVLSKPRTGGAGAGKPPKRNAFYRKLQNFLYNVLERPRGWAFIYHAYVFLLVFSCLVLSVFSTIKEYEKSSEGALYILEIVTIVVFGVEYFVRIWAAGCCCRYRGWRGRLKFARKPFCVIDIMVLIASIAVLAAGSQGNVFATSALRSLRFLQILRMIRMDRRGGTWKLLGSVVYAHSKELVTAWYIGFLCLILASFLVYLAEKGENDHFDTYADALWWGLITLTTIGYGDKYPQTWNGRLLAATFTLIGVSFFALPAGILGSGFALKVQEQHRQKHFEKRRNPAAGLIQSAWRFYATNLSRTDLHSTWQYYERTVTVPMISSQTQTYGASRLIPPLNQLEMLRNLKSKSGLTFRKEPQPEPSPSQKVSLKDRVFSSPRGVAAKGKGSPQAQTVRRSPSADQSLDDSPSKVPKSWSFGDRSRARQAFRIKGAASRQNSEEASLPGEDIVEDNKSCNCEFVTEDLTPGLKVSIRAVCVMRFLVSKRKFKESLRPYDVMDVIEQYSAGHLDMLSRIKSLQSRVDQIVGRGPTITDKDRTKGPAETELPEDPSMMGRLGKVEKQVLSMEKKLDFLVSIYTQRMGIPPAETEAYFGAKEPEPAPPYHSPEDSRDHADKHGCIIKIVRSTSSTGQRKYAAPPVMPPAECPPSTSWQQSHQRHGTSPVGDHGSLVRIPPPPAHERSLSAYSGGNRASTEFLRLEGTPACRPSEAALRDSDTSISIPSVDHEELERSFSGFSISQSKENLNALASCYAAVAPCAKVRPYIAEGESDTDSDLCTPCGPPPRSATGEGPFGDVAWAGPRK
KCNQ2 inh baseline: also measured in KCNQ2 inh; calls as there; B-score; measured here: initial fluorescence intensity artifact check;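 brightness before thallium and not channel activity; 0 = typical well and far values either way flag optical interference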
The depositor's hits bear a star; i = inactive.

KCNQ2 inh	KCNQ2 inh baseline	compound
i	1.3	O=C(NCc1ccc2c(c1)OCO2)C1CCCN(C(=O)c2ccc(Cl)cc2)C1 (configuration not stated)
i	0.86	CCN(CC)CCCN(C(=O)Cn1nnc(-c2ccc(OC)c(OC)c2)n1)C(C(=O)NC(C)(C)C)c1ccc(F)cc1 (configuration not stated)
i	-0.03	Cc1c(CCC(=O)NC2CC2)c(=O)oc2c(C)c(O)ccc12
i	-0.51	Cc1cc(C)c(C(=O)CSC2=NC(N)=C(C#N)C3(CCCCC3)C2C(N)=O)cc1C (configuration not stated)
i	0.27	CCC(=O)Nc1ccc(NC(=S)NC(=O)c2cc3ccccc3o2)cc1
i	1.2	CSc1nnc([C@H](C)NC(=O)OC(C)(C)C)o1
i	0.01	COc1ccc(Cc2nc3c4c(ncn3n2)Oc2ccc3ccccc3c2C4c2ccc(OC)c(OC)c2)cc1 (configuration not stated)
i	-1.9	CC(NC(=O)[C@H](NC(=O)[C@@H]1Cc2ccccc2CN1)c1ccccc1)c1ccccc1 (some centres not stated)
i	-0.04	O=C(O)CCC(=O)Nc1cc(C(F)(F)F)cc(C(F)(F)F)c1
i	0.46	CC(C)CC(C(=O)NC1CCCC1)N(Cc1ccc2c(c1)OCO2)C(=O)c1snc(C(N)=O)c1N (configuration not stated)
i	-0.35	O=C(O/N=C(/c1ccccc1)c1ccncc1)c1cccc(F)c1
i	-0.3	CCOC(=O)c1cnn(-c2ncnc3c2oc2ccccc23)c1N
i	-0.03	CCN(C(=O)COC(=O)/C=C/c1ccccc1)C1CCCCC1
i	0.88	COC(=O)Cn1c(=O)c2c(nc3n2CC(C)CN3c2ccc(C)c(C)c2)n(C)c1=O (configuration not stated)
i	0.2	COc1cc(C2C3=C(CC(C)(C)CC3=O)N(C)C3=C2C(=O)CC(C)(C)C3)cc(Br)c1O
i	-0.21	COc1ccc2ccccc2c1C(O)c1nccn1C (configuration not stated)
i	-1.4	COc1ccc(NC(=O)C(C)SCc2ccccc2)cc1OC (configuration not stated)
i	-1.2	O=C(CN1CCCC1)Nc1c(C(=O)C2CC2)oc2ccccc12
i	-0.76	CN(C)C(=O)/C=C\c1cn(-c2ccccc2)nc1-c1ccc2c(c1)OCCO2
i	-1.9	O=C(Nc1cccc(F)c1)OC(CN1CCCCC1)C(F)(F)F (configuration not stated)
i	-0.83	CCOCCCNC(=O)/C(C#N)=C/c1ccc([N+](=O)[O-])o1
i	0.69	CN(C)c1nc(-c2cn(CCC#N)c3ccccc23)cs1
i	0.5	CCC(C)Nc1nc2c(C)cccn2c(=O)c1C=Nc1ccc(OC)cc1 (configuration not stated)
i	-0.09	Cc1ccc(N2CCN(C(=O)c3ccccc3NC(=O)/C=C\C(=O)O)CC2)cc1
i	0.31	COc1ccc(-c2noc(CN3C(=O)c4ccccc4C3=O)n2)cc1
i	0.87	Cc1cc(NC(=O)CCN2C(=O)/C(=C/c3ccccc3F)SC2=S)no1
i	0.39	CC(=O)N1N=C(c2ccccc2)CC1c1cccs1 (configuration not stated)
i	3.6	Cc1cc(NC(=O)NC2CCCN2S(=O)(=O)c2ccc(Cl)cc2)no1 (configuration not stated)
i	0.88	O=[N+]([O-])c1ccc(N2CCN(c3ccc(O)cc3)CC2)cn1
i	-0.03	CC1CCCN(C(=O)COc2ccc(-c3ccccc3)cc2)C1 (configuration not stated)
i	1.5	Cc1ccc(-n2nc(C)c3onc(C)c3c2=O)cc1
i	-1.2	COc1cc2c(cc1OC)C(c1ccccc1)N(C(=O)c1ccccc1)CC2 (configuration not stated)
i	-1.5	O=C(/C=C/c1ccco1)Nc1cccc2cccnc12
i	1.8	CCN(CC1CCCN(CCc2cccc(F)c2)C1)C(=O)c1ccc(CSC)o1 (configuration not stated)
i	-0.18	CC1(C)CC(=O)C2=C(C1)NC(SCC(N)=O)=C(C#N)C21CCCCC1
i	-0.04	CCCCC(c1nnnn1CC1CCCO1)N1CCN(Cc2ccccc2)CC1 (configuration not stated)
i	-1.8	Oc1ccccc1-c1nc(N2CCN(Cc3ccccc3)CC2)c2ccccc2n1
i	-1.2	CCOCCCN1C(=O)CN(C2CCCCCC2)C(=O)C1c1ccc(OC)cc1 (configuration not stated)
i	0.29	Cc1cnc(NC(=O)CSC(=S)N2CCOCC2)s1
i	-1	COc1ccc(C2CC(c3ccccc3)=NN2C(=O)CN2CCN(Cc3ccccc3)CC2)cc1 (configuration not stated)
i	-0.13	NCCc1nnc(SCc2c(F)cccc2Cl)o1
i	-0.7	O=C(Cn1nc(-c2ccco2)ccc1=O)Nc1ccc(Br)cc1
i	0.61	CN(CC(=O)Nc1ccccc1Sc1ccccc1)Cc1nc2ccccc2c(=O)[nH]1
i	-1.5	CCCCNC(=O)Nc1nnc(-c2ccccc2)o1
i	-0.09	CCOC(=O)c1ccc(NC(=S)N(CCCN2CCCC(C)C2)Cc2cccs2)cc1 (configuration not stated)
i	0.33	Cc1ccc(CN2CCSc3ccc(C(=O)NC4CCCC4)cc32)cc1
i	1.9	Cc1cccc[n+]1CC(=O)c1ccc(Cl)cc1
i	-0.08	OCCCn1c(CCNc2nc(-c3ccc(Cl)cc3)cs2)nc2cc(C(F)(F)F)ccc21

An excerpt from further up:
KCNQ2 inh	KCNQ2 inh baseline	compound
i	3.6	Cc1cc(NC(=O)NC2CCCN2S(=O)(=O)c2ccc(Cl)cc2)no1 (configuration not stated)
i	0.88	O=[N+]([O-])c1ccc(N2CCN(c3ccc(O)cc3)CC2)cn1
i	-0.03	CC1CCCN(C(=O)COc2ccc(-c3ccccc3)cc2)C1 (configuration not stated)
i	1.5	Cc1ccc(-n2nc(C)c3onc(C)c3c2=O)cc1
i	-1.2	COc1cc2c(cc1OC)C(c1ccccc1)N(C(=O)c1ccccc1)CC2 (configuration not stated)
i	-1.5	O=C(/C=C/c1ccco1)Nc1cccc2cccnc12
i	1.8	CCN(CC1CCCN(CCc2cccc(F)c2)C1)C(=O)c1ccc(CSC)o1 (configuration not stated)
i	-0.18	CC1(C)CC(=O)C2=C(C1)NC(SCC(N)=O)=C(C#N)C21CCCCC1
i	-0.04	CCCCC(c1nnnn1CC1CCCO1)N1CCN(Cc2ccccc2)CC1 (configuration not stated)
i	-1.8	Oc1ccccc1-c1nc(N2CCN(Cc3ccccc3)CC2)c2ccccc2n1
i	-1.2	CCOCCCN1C(=O)CN(C2CCCCCC2)C(=O)C1c1ccc(OC)cc1 (configuration not stated)
i	0.29	Cc1cnc(NC(=O)CSC(=S)N2CCOCC2)s1
i	-1	COc1ccc(C2CC(c3ccccc3)=NN2C(=O)CN2CCN(Cc3ccccc3)CC2)cc1 (configuration not stated)
i	-0.13	NCCc1nnc(SCc2c(F)cccc2Cl)o1
i	-0.7	O=C(Cn1nc(-c2ccco2)ccc1=O)Nc1ccc(Br)cc1
i	0.61	CN(CC(=O)Nc1ccccc1Sc1ccccc1)Cc1nc2ccccc2c(=O)[nH]1
i	-1.5	CCCCNC(=O)Nc1nnc(-c2ccccc2)o1
i	-0.09	CCOC(=O)c1ccc(NC(=S)N(CCCN2CCCC(C)C2)Cc2cccs2)cc1 (configuration not stated)

Next section.
KCNQ2 inh	KCNQ2 inh baseline	compound
i	0.05	O=C(C[n+]1cccc(C(=O)Nc2ccccc2)c1)c1ccc([N+](=O)[O-])cc1
i	-0.88	COC(=O)CNC(c1ccccc1)c1cc(Br)ccc1NS(=O)(=O)c1ccc(C)cc1 (configuration not stated)
i	-2.2	O=c1[nH]c2ccc(NC(=S)Nc3ccc(Cl)cc3Cl)cc2[nH]1
i	-1.3	COc1ccc(C(=O)Nc2ccc3nc(C)c(C)nc3c2)cc1
i	1.4	CCOC(=O)c1cc2sc(C)cc2n1CC(=O)Nc1cccc(C)c1C
i	-2.4	O=C(CN1CCN(Cc2ccc(Cl)cc2)C1=O)NCCN1CCCC1
i	-0.07	O=C(Nc1cccnc1)C1COc2ccccc2O1 (configuration not stated)
i	-1.1	O=C(O)CCC(=O)N1N=C(c2ccccc2)CC1c1ccc(Br)cc1 (configuration not stated)
i	0.99	COc1ccc(CNC(=O)C2CSC(c3ccc(OC)cc3)N2C(C)=O)cc1 (configuration not stated)
i	-0.03	COc1cc(C(=O)NNC(=S)NC(=O)c2ccc(F)cc2)cc(OC)c1OC
i	-1.6	CCOC(=O)C[N+](CC)(CC)CC#Cc1ccccc1
i	0.41	O=C(Nc1nc2cc3c(cc2s1)OCO3)c1ccc(N2C(=O)CCC2=O)cc1
i	0.79	CCC1COC(c2cccn2Cc2ccccc2Cl)=N1 (configuration not stated)
i	-0.86	O=C(Nc1ccc2nn(-c3ccccc3)nc2c1)c1ccc2c(c1)OCO2
i	-0.43	CCCN(C(=O)Cn1nc(C)c([N+](=O)[O-])c1C)c1c(N)n(Cc2ccccc2)c(=O)[nH]c1=O
i	3.2	CCN(CC(=O)Nc1ccc2c(c1)OCCO2)C(=O)/C=C/c1cccc(Br)c1
i	0.03	O=C(CCC(=O)N(CC(=O)NC1CCCCC1)CC1CCCO1)Nc1nccs1 (configuration not stated)
i	0.01	O=C(NC(=S)Nc1ccc2c(c1)OCCO2)c1ccccc1F
i	1.6	Cc1nnc(N2C(=O)C(=O)/C(=C(/O)c3ccc4c(c3)OCCO4)C2c2ccc([N+](=O)[O-])cc2)s1 (configuration not stated)
i	0.12	Cc1ccc(-c2ccc(C3C(C#N)=C(N)Oc4n[nH]c(C)c43)o2)cc1 (configuration not stated)
i	0.05	CC1CCCC(NC(=O)CCNC(=O)c2ccccc2Cl)C1C (configuration not stated)
i	1.2	Cc1cc(NC(=O)/C=C/c2ccccc2Cl)n(-c2nc3ccccc3[nH]2)n1
i	0.04	Cc1ccc(C(=O)CSc2nnc(COc3cccc(C)c3)o2)cc1
i	-0.01	CCNc1cc(=O)n(C)c(=O)n1C
i	1.2	CNc1nc(-c2ccc3c(c2)CCN3S(=O)(=O)c2ccccc2)c(C)s1
i	-1.6	COc1cc2nc(Nc3cccc(F)c3)nc(N)c2cc1OC
i	0.99	O=C(Nc1nncs1)c1cccnc1Cl
i	-0.6	O=C(c1cc(Cl)cc(Cl)c1)N1CCC(=O)N(C(COCc2ccccc2)Cc2ccccc2)CC1 (configuration not stated)
i	-1.4	CC1(C)CC2CC(C)(CN2C(=O)COC(=O)Cn2[nH]c(=O)c3ccccc3c2=O)C1 (configuration not stated)
i	0.48	O=C(CSc1nnc(-c2ccccn2)o1)Nc1ccccc1
i	0.84	CN(CC(=O)Nc1c(Cl)cccc1Cl)C(=O)c1cccc(S(=O)(=O)NCc2ccccc2)c1
i	1.8	CC(=O)C1=NN(c2ccccc2)C(c2cccs2)N1c1ccccc1 (configuration not stated)
i	-2.7	CCOC(=O)N1C2=NC(C(=O)OC)=C(C(=O)OC)[C@@H]3N(C)c4ccccc4[C@]23C[C@H]1C(=O)OC
i	-0.87	CCO[C@@H]1OC(C(=O)N2CCCCCCC2)=C[C@H](c2ccc3c(c2)OCO3)[C@H]1CCCO
i	-0.17	CCOC(=O)c1cc(-c2cccc(C(F)(F)F)c2)nc2nc(SC)[nH]c(=O)c12
i	0.87	CCN(CC)c1ncnc2sc(C(=O)N3CCN(c4ccc(OC)cc4)CC3)c(C)c12
i	-0.7	CN1CCC(NC(=O)c2cc(-c3cccc(Br)c3)nc3ccccc23)CC1
i	1.8	Cc1ccc(N2C(=O)[C@@H]3C(c4cccnc4)=NO[C@@H]3C2=O)c(C)c1
i	-0.43	Cn1nccc1C(=O)NC1CCN(Cc2ccccc2)CC1
i	-0.33	O=c1oc2ccccc2n1CCCOc1ccccc1
i	0.21	O=C1CCCC(O)=C1C=NCc1ccccc1
i	2.1	O=C1C2CC=C(Cl)CC2C(=O)N1CCCCCCN1C(=O)C2CC=C(Cl)CC2C1=O (configuration not stated)
i	-0.24	CCCCOC(=O)c1ccc(NC(=O)c2c(Cl)ccc(Cl)c2OC)cc1
i	-1.2	COCCn1c(C)cc(C(=O)COC(=O)c2ccc(-n3nc(C)cc3C)cc2)c1C
i	0.02	COc1cc(C(=O)NNC(=S)NCc2ccco2)cc(OC)c1OC
i	-0.53	CN(CC(=O)Nc1ccccc1Br)C(=O)CCSc1ccc(F)cc1
i	-1.3	Cc1ccc(SCc2cc(=O)n(C)[nH]2)cc1
i	-0.88	O=C(c1ccccc1)c1coc2c1C(=O)c1ccccc1C2=O
i	0.25	NS(=O)(=O)c1cnccc1Oc1cccc(Cl)c1
i	0.45	COc1ccccc1N1CCN(S(=O)(=O)Cc2ccccc2Cl)CC1
i	0.5	O=C(Nc1ccc(N=Nc2ccccc2)cc1)c1cccc(Cl)c1
i	-0.05	CN(CCOc1ccccc1)C(=O)C1CCN(C(=O)c2ccc(Cl)cc2)CC1
i	1.1	S=C(c1ccc(-c2cccc(Cl)c2)o1)N1CCOCC1
i	2.2	COc1cc(C)c(S(=O)(=O)NCc2cccs2)cc1C
i	0.97	Cc1ccc(C(=O)NC(NC(=O)c2ccc(C)cc2)C(Cl)Cl)cc1
i	1.2	Cc1cc(C)n(-c2ccc(C(=O)Nc3ccc(N4CCOCC4)cc3)cc2)n1
-6.2*	-1.3*	COc1ccc(C(=O)NC2CCCc3c2cnn3-c2cccc(C)c2C)c(OC)n1 (configuration not stated)
i	-1	CCn1ccnc1CNC(=O)CC1C(=O)NCCN1Cc1ccc(F)cc1Cl (configuration not stated)
i	-2.8	O=C1CSC(c2cccc(F)c2)N1c1ccc(O)cc1 (configuration not stated)
i	-1.6	O=C1c2ccsc2SCCN1Cc1c(F)cccc1Cl

(next part)
KCNQ2 inh	KCNQ2 inh baseline	compound
i	-0.2	CC(=O)Nc1ccc(NC(=O)CCc2nc3ccccc3c(=O)[nH]2)cc1
i	2.8	c1ccc2oc(-c3nn4c(Cn5cnc6ccccc65)nnc4s3)cc2c1
i	-1.6	CCCC(NS(=O)(=O)c1ccc(OC)cc1)C(=O)O (configuration not stated)
i	0.43	Cc1ccc(SC(C)C(=O)Nc2ccccc2-c2ccccc2)cc1 (configuration not stated)
i	1.7	O=C(CSCc1ccc(F)cc1)N1CCN(c2ccccc2)CC1
i	0.44	CCCCn1c(=O)[nH]c(=O)c2c1nc(-c1ccccc1F)n2Cc1ccccc1OC

The list is partial. The share of hits here may be higher or lower than overall.
